LANA-H2B inh – blocks KSHV LANA binding to histone H2A/H2B; cell-free LANA-H2A/H2B peptide, fluorescence polarization; inhibition, % (test concentration not listed); 320,000 compounds, 0.6% hits; AID 2629; in the data active means inhibition mostly above about 10%, no sharp cut-off; inactive means mostly below about 6.7%;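 further: stock transfer was 7.5 nL into about 10 µL; 0% = median of vehicle wells and 100% = median of positive control wells; one replicate is shown; the record names a cut of 25% in any replicate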
B2AR ag – human beta-2 adrenergic receptor agonism by FAP | response, % (test concentration not listed) | P07550 | 340,000 compounds, 0.43% hits | AID 504454 | Am2.2-beta2AR cells, FAP receptor internalization, flow cytometry; reference of the scale not given here;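 active means response above a set limit, near 3 SD of response in nonfluorescent compounds, cut at about 42% in these data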;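 further: stock transfer was 100 nL into about 11 µL; a reference agonist was the positive control; negative values mostly stem from fluorescent compounds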
Target sequence (P07550 whole entry, looked up): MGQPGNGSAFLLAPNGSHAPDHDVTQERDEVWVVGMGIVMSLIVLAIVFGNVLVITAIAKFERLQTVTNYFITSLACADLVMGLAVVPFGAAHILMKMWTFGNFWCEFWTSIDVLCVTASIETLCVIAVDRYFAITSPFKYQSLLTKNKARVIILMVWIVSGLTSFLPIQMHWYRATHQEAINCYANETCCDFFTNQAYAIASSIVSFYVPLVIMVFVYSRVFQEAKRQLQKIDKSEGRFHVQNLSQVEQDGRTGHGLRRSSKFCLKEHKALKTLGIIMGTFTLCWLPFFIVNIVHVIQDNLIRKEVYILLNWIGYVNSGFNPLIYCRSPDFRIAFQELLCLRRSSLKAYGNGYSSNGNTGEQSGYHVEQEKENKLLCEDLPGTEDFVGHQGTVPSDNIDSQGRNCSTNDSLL
HNF4A DNA FP – change in binding of human HNF4 alpha to DNA. P41235. HNF4a-FITC DNA binding, fluorescence polarization, 1 h. activity change, % at 10 µM. 360,000 compounds, 0.3% hits. AID 1224865; in the data active means activity change above about 30%, passing the limit was not always enough;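 further: controls were the assay level and a saturating level of protein; the project sought stronger binding though the title names inhibitors; some compounds called inactive have numbers as strong as hits; positive values seem to mean higher polarization but the record does not say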
Target sequence (P41235 whole entry, looked up): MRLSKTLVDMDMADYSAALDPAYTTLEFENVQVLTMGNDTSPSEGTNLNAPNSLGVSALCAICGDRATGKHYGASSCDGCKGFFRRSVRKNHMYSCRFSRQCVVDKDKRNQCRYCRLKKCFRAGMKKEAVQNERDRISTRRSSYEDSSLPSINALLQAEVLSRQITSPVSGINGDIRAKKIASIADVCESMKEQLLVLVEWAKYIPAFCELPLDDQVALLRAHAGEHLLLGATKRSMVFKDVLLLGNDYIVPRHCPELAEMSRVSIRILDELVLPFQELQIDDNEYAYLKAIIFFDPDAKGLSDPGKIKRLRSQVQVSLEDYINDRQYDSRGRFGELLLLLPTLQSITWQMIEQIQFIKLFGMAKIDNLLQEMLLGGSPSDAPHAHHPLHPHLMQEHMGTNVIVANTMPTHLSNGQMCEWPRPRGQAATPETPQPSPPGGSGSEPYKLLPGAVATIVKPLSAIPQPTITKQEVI
RanGTP-Imp inh – disruptors of Ran-importin-beta complex formation – biochemical, FRET, CFP-Ran, YFP-importin-beta, homogeneous, primary screen. cell-free CFP-Ran/YFP-importin-beta FRET ratio. inhibition, % (no concentration beside the values). 300,000 compounds, 1.1% hits. AID 2216;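 active means most replicates above 15%; inconclusive means exactly half above 15%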;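 further: 0% = DMSO wells and 100% = Ran loaded with GDP instead of GTP; wells of about 40 µL received 100 nL stock; the first replicate is given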
Vif A3G – inhibitors of Vif binding to APOBEC3G peptide, primary screen, biochemical, TR-FRET, GST-Vif 1-94, biotin-A3G peptide, dose response retest (AID 1117319); TR-FRET GST-Vif / biotin-A3G peptide binding; higher % means a stronger effect; test concentration not given here; strong numbers were not always called active; inhibition, %; hits with a dose series show IC50 in µM; 260,000 compounds, 0.57% hits;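 active means above the screen mean plus three standard deviations and confirmed in dose response; inconclusive means results disagree or hit not tested in dose response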;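 further: Vif residues 1-94 fused to GST binding biotinylated APOBEC3G peptide 110-148; 0% = full assay without inhibitor and 100% = GST in place of GST-Vif; retest series ran down from 100 µM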
ALR inh – inhibitors of human sulfhydryl oxidase ALR; inhibition, % (concentration not given with the values); 290,000 compounds, 3.8% hits; purified ALR, DTT oxidation, H2O2 HRP-luminol luminescence; P55789; AID 485317;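 active means mean and each replicate at 75% or more; inconclusive means only one of the two met; inactive means neither met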;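 further: stock transfer was 7.5 nL into about 7.5 µL; 0% = neutral wells and 100% = wells with inactivated enzyme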
Target sequence (P55789 whole entry, looked up): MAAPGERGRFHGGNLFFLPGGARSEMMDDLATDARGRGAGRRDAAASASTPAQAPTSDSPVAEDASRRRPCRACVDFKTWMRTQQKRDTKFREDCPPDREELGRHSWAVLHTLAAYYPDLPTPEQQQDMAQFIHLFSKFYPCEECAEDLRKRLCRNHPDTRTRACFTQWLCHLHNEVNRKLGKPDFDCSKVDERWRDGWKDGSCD
Calb FLC – affects C. albicans growth with fluconazole. C. albicans CaCi-2 (fluconazole-resistant clinical isolate) + fluconazole, Alamar Blue growth, 48 h. growth inhibition, % (test concentration not listed). 300,000 compounds, 0.57% hits. AID 1979;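 active means most replicates above 75%; inconclusive means exactly half above 75%; inactive means most below 75%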;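 further: all wells also contain fluconazole at 8 µg/ml as a sub-toxic cotreatment; 0% = median of DMSO wells and 100% = median of geldanamycin control wells; wells of about 8 µL received 7.5 nL stock; the first replicate is given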
* = called active by the depositor; ? = inconclusive; · = not tested or not shown; & = joins results of further samples.

SMILES	LANA-H2B inh	B2AR ag	HNF4A DNA FP	RanGTP-Imp inh	Vif A3G	ALR inh	Calb FLC
Cc1cccc(-n2c(C)c(-c3ccccc3)[nH]c2=S)c1	2.0	0	-1.2	4.0	·	82*	-16
Cc1cccc(N(C)S(=O)(=O)c2c[nH]c3ccc([N+](=O)[O-])cc23)c1	·	0	-3.3	3.3	0%	14	1
C=C1CCN([C@H](C(=O)NCc2cc(OC)c(OC)c(OC)c2)C(C)C)S(=O)(=O)c2ccccc21	3.9	4	1.4	1.2	·	0	2
CCC1(CC)C(=O)NC(=O)NC1=NCCc1c[nH]c2ccccc12	1.0	-4	0.2	5.2	4%	-5	0
COc1ccccc1NC(=O)CNC(=O)c1ccc([N+](=O)[O-])cc1	2.6	4	1.4	-2.6	?	-10	1
CS(=O)(=O)c1cnc2c(S(=O)(=O)c3ccccc3)cnn2c1N	-3.6	1	1.5	-1.8	1%	·	-4
COC(=O)CN1C(=O)N/C(=C/c2ccc(OC)c(C)c2OC)C1=O	-1.0	-1	0.0	2.9	·	-9	41
CN(C(=O)c1ccc(S(=O)(=O)N2CCCC2)cc1)C1CCCCC1	-1.4	3	3.6	-2.3	3%	·	-17
COc1ccc(C(=O)NCC2CCCO2)cc1S(=O)(=O)N1CCCc2ccccc21 (stereo not given)	-1.4	-4	0.5	1.5	-2%	-30	-6
CC(=O)NC(CC(=O)OCC(=O)N1CCc2ccccc21)c1ccccc1 (stereo not given)	-0.2	2	2.3	0.1	-5%	·	0
Cc1occc1C(=O)NNC(=O)c1cccc(F)c1	11	-11	2.2	2.5	·	-8	-1
CC(=O)c1ccc(S(=O)(=O)Nc2ccc(C(=O)N3CCC3)cc2)cc1	·	-10	5.4	·	15%	·	·
O=C(CSC1=Nc2ccccc2C2=NC(c3ccccc3)C(=O)N12)NCC1CCCO1 (stereo not given)	-0.3	-1	1.4	3.0	?	-17	9
COc1ccccc1C(=O)c1c(C)c(CCC#N)n2ccccc12	-3.1	-3	1.1	-2.0	-3%	-17	3
N#Cc1nc(-c2ccco2)oc1N1CCC(C(N)=O)CC1	2.6	7	-1.6	4.7	1%	0	-8
CCC(C(=O)NC1CCCCC1)N(Cc1cccs1)C(=O)CCC(=O)Nc1cc(C)on1 (stereo not given)	8.9	-17	3.6	2.7	·	34	2
O=C(CCN1C(=O)c2ccccc2C1=O)Nc1cccc(S(=O)(=O)NC2=NCCC2)c1	-1.3	-4	-1.9	-1.7	-5%	-5	-8
Cn1c(=NC(=O)CSCC(=O)N2CCCC2)sc2ccccc21	3.4	-2	-3.8	6.9	2%	-8	5
CCOC(=O)c1sc(Nc2ccc(OCC)cc2)nc1C	4.4	20	1.7	-1.7	·	-32	25
C/C(=N/NC(=O)CNC(=O)c1cccnc1)c1ccc(Cl)cc1	1.4	-5	2.1	-3.0	-1%	-16	-7
COc1ccc(C2C(C(=O)N3CCCC3)CC(=O)N2c2ccc(OC)cc2)cc1 (stereo not given)	-0.4	-2	6.1	3.5	-4%	·	1
CN(Cc1cnn(C)c1)Cc1nc(-c2ccc(Cl)cc2)no1	-1.1	-9	-3.5	0.1	0%	0	-2
CC(NC(=O)COC(=O)COc1cccc2c1OC(C)(C)C2)c1ccccc1 (stereo not given)	0.2	-1	0.5	1.3	·	0	-4
CC(C)(C)S(=O)(=O)N1C[C@H]2CC/C=C\C/C(c3ccccc3)=C\2[C@@H]1CCO	·	1	-0.2	·	-4%	·	·
CC(=O)c1c(C)[nH]c(C(=O)COC(=O)c2nccnc2N)c1C	4.0	-1	0.8	·	3%	0	·
c1ccc2c(c1)NC(c1ccncc1)n1c-2nc2ccccc21 (stereo not given)	-0.4	-11	-3.6	3.5	-2%	-4	0
CN(C)CCC(Oc1ccccc1OCc1ccccc1)c1ccccc1 (stereo not given)	4.0	12	-1.5	5.1	·	-1	-9
CCOc1cc(C(=O)Nc2ncccn2)cc(OCC)c1OCC	1.1	-2	0.3	1.4	11%	-4	-4
Cc1nnc(Sc2nc3c(c(=O)[nH]c(=O)n3C)n2Cc2ccccc2)s1	4.7	-5	0.4	1.9	·	-12	-1
Cc1ccc(CN2CCN(/N=C/c3cccn3C)CC2)c(C)c1	1.9	-4	4.0	1.7	?	58	-4

Reprinted at random: two records from the list
SMILES	LANA-H2B inh	B2AR ag	HNF4A DNA FP	RanGTP-Imp inh	Vif A3G	ALR inh	Calb FLC
CC(NC(=O)COC(=O)COc1cccc2c1OC(C)(C)C2)c1ccccc1 (stereo not given)	0.2	-1	0.5	1.3	·	0	-4
CCOC(=O)c1sc(Nc2ccc(OCC)cc2)nc1C	4.4	20	1.7	-1.7	·	-32	25

Next part.
SMILES	LANA-H2B inh	B2AR ag	HNF4A DNA FP	RanGTP-Imp inh	Vif A3G	ALR inh	Calb FLC
CC(=O)c1c(C)[nH]c(C(=O)COC(=O)c2cccnc2Cl)c1C	-2.3	-6	-5.0	·	·	·	·
COc1cc(CO)cc(Br)c1OCC(=O)O	0.7	3	3.9	-0.5	0%	6	0
CS(=O)(=O)Nc1ccc(OCc2ccccc2)cc1	-2.9	0	-0.4	-2.4	-3%	1	-4
COc1ccc(C2/C(=C(\O)c3ccc4c(c3)OCCO4)C(=O)C(=O)N2Cc2cccnc2)cc1 (stereo not given)	-1.7	0	-0.8	2.9	-2%	0	-13
CCc1cc(Cn2nc(-c3ccccc3)cc2C(=O)NCCOC)on1	6.6	-11	6.9	1.6	·	5	1
COC(=O)C1C(=O)NC(SC)=C(C#N)C1c1ccccc1F (stereo not given)	5.3	-6	-0.6	-1.3	19%	16	15
COc1ccc(NC(=O)C2C3C=CC4(O3)C2C(=O)N(CCCN2CCCC(C)C2)C4C(=O)NC2CCCCC2)cc1 (stereo not given)	1.5	4	18	-0.7	5%	-11	-6
Cc1ccnc(NC(=S)NC(=O)c2cncc(Br)c2)c1	-2.7	-14	4.5	3.7	·	·	2
CCOCCCNS(=O)(=O)c1ccc(NC(=O)c2ccccc2)cc1	-3.0	-1	-0.5	?	0%	-5	-11
O=C(O)C1(c2ccccc2)CCN(S(=O)(=O)c2cccc(Cl)c2)CC1	3.6	4	1.5	-2.1	·	-8	1
Cc1ccc2c(COC(=O)c3c(C)noc3C)cc(=O)oc2c1	-0.9	11	-1.4	-0.4	-3%	3	0
COc1cc(C(=O)Nc2ccc(S(=O)(=O)Nc3cc(C)nc(C)n3)cc2)cc(OC)c1OC	3.7	4	0.0	2.3	-11%	32	7
NC(N)=NN=C1CCCCCCCCCCC1	2.0	-4	-0.6	?	-1%	-8	-6
O=C(NC(=S)NCCc1ccccc1)c1ccco1	3.0	-11	3.7	-1.2	3%	33	-6
COc1ccc(/C=N/N=C2/NC(=O)C(CC(=O)O)S2)cc1OCc1ccc(Cl)cc1 (stereo not given)	-0.5	-1	-2.5	-2.2	·	54	5
Cc1cccc(NC(=O)CCN2CC(C)OC(C)C2)c1 (stereo not given)	4.3	8	-1.3	-1.8	2%	-8	5
Cc1cccc(C(C)C)c1NC(=O)c1c(-c2ccccc2)noc1C	2.0	-10	5.2	1.2	·	-1	0
COc1ccc(NC(=O)C2CCCN2S(=O)(=O)c2ccc3c(c2)CCC(=O)N3)c(OC)c1 (stereo not given)	-2.5	2	3.6	·	?	-27	·
COc1ccc(C)cc1NC(=O)CC(NC(C)=O)c1ccccc1 (stereo not given)	-2.2	2	2.4	4.7	·	0	14
CSc1nc(S(=O)(=O)c2ccccc2)c(Cl)s1	-2.8	-18	1.1	1.6	6%	-3	15
COc1ccc(C)cc1NC(=O)CCC(=O)Nc1nnc(C(F)(F)F)s1	-4.9	10	2.3	-1.7	7%	-3	?
Cc1cccc(C)c1NC(=O)Cn1c(=O)n(CCC(=O)NCc2ccco2)c(=O)c2sccc21	-0.4	-1	0.5	2.0	-5%&-6%	-8	18
CCC/C(O)=C1\C(=O)CC(c2ccccc2)CC1=NCCc1c(C)[nH]c2ccc(C)cc12 (stereo not given)	1.6	10	1.6	-2.5	·	-4	3
CC1CC(C)(C)CC2(C1)NC(=O)N(CC(=O)Nc1ccc3[nH]c(=O)[nH]c3c1)C2=O (stereo not given)	0.8	6	9.1	·	-17%	-4	·
CCc1noc(C)c1C(=O)Nc1nc2ccc(F)cc2s1	-2.8	2	2.2	0.7	-5%	0	13
CCCC(c1nnnn1Cc1cccs1)N1CCN(C)CC1 (stereo not given)	-20	8	0.3	7.3	2%	3	1
CCCCn1c(N)c(N(CCOC)C(=O)COC(=O)c2ccccc2OCC)c(=O)[nH]c1=O	-8.8	1	1.2	0.3	·	2	0
CN(c1ccc(C(=O)Nc2cccnc2)cc1)S(=O)(=O)c1ccc(Cl)cc1	2.3	3	1.5	-1.1	-7%	0	1
C=CCNC(=S)NNc1nc(Nc2ccccc2)nc(N2CCCCC2)n1	-0.2	-9	-6.3	-0.4	·	-1	32
CCCn1c(Sc2nc3c(c(=O)[nH]c(=O)n3C)n2CCC)nc2c1c(=O)[nH]c(=O)n2C	3.5	7	0.1	-1.9	66%	2	-6

Structures above that bear a hit mark in ALR inh.
Compound	LANA-H2B inh	B2AR ag	HNF4A DNA FP	RanGTP-Imp inh	Vif A3G	ALR inh
Cc1cccc(-n2c(C)c(-c3ccccc3)[nH]c2=S)c1	2.0	0	-1.2	4.0	·	82*

Further entries:
SMILES	LANA-H2B inh	B2AR ag	HNF4A DNA FP	RanGTP-Imp inh	Vif A3G	ALR inh	Calb FLC
O=C(Nc1ccccc1)OCCOc1ccc(Cl)cc1Cl	·	-8	-1.9	·	-10%	·	·
COCCNC(=O)CN1C(=O)CSc2ccc(S(=O)(=O)N3CCOCC3)cc21	3.2	4	-0.6	2.0	4%	-7	12
CCc1cc2c(N[C@@H](Cc3ccccc3)C(=O)O)ncnc2s1	-2.7	-1	-0.1	2.3	-1%	2	6
Cc1ccc(C)n1NC(=O)c1ccc(Cl)cc1	-2.4	-3	-0.9	-1.0	-1%	3	1
COC(=O)C[C@H]1c2cc(F)ccc2S(=O)(=O)N1Cc1ccccc1OC	-1.6	1	-2.6	-3.7	·	-9	7
COc1ccc(C(=O)CC(=O)c2ccccc2O)cc1OC	3.1	2	-2.3	-2.7	1%	2	0
COc1cc(/C=N/NC(=O)c2ccccc2O)ccc1OCC(=O)Nc1ccccc1	1.5	7	-3.0	-3.1	·	·	7
Cc1ccc(-c2cc(C(F)F)n3ncc(C(=O)NN4CCCCC4)c3n2)cc1	-2.0	5	-0.7	-4.7	-4%	-9	-8
Cc1onc(-c2ccccc2Cl)c1C(=O)Nc1ccc(F)c(F)c1	-3.8	-3	1.3	4.3	0%	·	-24
CC1CC(C)CN(CCOc2cccc(Cl)c2Cl)C1 (stereo not given)	-5.5	5	-1.8	?	·	-3	3
CN(Cc1cccnc1)C(=O)CNC(=O)COc1ccccc1	-2.3	6	0.6	3.2	·	-5	-3
COc1cccc(/C=N/NC(=O)CSCC(=O)Nc2ccccc2)c1O	-2.6	3	0.3	-2.6	3%	91*	0
Cc1ccccc1OC1CCN(C(=O)C2CCC(=O)N(C3CCCC3)C2)CC1 (stereo not given)	·	7	1.8	1.2	·	-5	-1
CC(C)Oc1ccccc1/C=N/Nc1ccccc1[N+](=O)[O-]	-1.5	4	2.4	1.2	4%	-11	5
CCCn1c(N)c(C(=O)CSc2nnc(-c3cccnc3)n2-c2ccc(C)cc2C)c(=O)[nH]c1=O	1.0	1	-2.5	1.1	·	-7	12
O=C(Cc1cccc(NC(=O)C2CCCN(C(=O)CCc3ccccc3)C2)c1)Nc1cccc(C(=O)N2CCCC2)c1 (stereo not given)	0.0	11	0.6	·	·	1	·
CC(NC(=O)COC(=O)C1=NN(c2ccccc2)C(=O)CC1)c1ccccc1 (stereo not given)	·	-2	0.0	·	0%	·	·
CCc1ccccc1NC(=O)/C(=C/c1ccco1)c1ccccc1	0.5	-2	-3.2	1.9	7%	5	-3

Screens as filed in PubChem BioAssay.
